# High-throughput results as filed in PubChem.
# AF4-AF9 inh – inhibitors of human MLL-AF4/AF9 interaction; P42568; hit rate 0.47% among 350,000; inhibition, % at 10 µM; AlphaScreen, biotin-AF4 peptide binding to FLAG-AF9;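 active means every replicate reaching a set inhibition limit, whatever the replicate mean, cut at about 25% in these data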;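 further: 0% = plate neutral control median and 100% = total signal loss; the record names both 10 and 1 µM as test concentration; the first replicate is given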
# Target sequence (P42568 whole entry, looked up): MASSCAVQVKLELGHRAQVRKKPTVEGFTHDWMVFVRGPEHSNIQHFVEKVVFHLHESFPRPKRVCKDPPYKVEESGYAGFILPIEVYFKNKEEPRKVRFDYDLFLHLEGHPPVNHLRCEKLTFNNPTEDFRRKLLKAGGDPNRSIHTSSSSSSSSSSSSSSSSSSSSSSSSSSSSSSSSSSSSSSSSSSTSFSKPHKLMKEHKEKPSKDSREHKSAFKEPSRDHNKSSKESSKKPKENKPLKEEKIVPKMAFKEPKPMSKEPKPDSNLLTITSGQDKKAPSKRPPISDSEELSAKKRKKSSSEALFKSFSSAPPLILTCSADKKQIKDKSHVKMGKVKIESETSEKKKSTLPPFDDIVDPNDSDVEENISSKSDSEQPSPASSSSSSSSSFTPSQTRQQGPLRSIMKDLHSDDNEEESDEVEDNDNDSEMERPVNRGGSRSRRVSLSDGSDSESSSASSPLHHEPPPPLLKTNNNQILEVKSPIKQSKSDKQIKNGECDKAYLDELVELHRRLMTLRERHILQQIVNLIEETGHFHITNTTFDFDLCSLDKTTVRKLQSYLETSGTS
# Ecoli rRNA inh – selective bacterial rRNA inhibition in E. coli; AID 720706; hit rate 1.6% among 350,000; E. coli WT GFP vs humanized-ribosome RFP mutants, fluorescence, 24 h; stronger effect = lower value; DMSO median 0, no signal -100; GFP signal change (wild-type ribosome), % (no concentration beside the values);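 active means significant combined selectivity score with lowered wild-type GFP, culture density cut under 30%, mutant RFP and density less affected; inactive means any of these conditions unmet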; further: one replicate is shown; some compounds called inactive have numbers as strong as hits
# FGF22 binding – shifts melting point of recombinant human FGF22 | hit rate 1.5% among 340,000 | calls only at 9.99 µM | recombinant FGF22 thermal shift, SYPRO orange fluorescence; percent of sucrose octasulfate shift, DMSO zero;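 active means melting point raised past a set limit in the mean and every replicate; three in four hits are not shown here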
# Target sequence (Q9HCT0 whole entry, looked up): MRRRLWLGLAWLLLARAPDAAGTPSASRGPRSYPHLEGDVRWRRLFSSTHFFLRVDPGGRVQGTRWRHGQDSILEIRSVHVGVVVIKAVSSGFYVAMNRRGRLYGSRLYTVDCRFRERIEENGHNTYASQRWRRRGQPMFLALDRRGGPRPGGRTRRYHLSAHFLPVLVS
# Ecoli rRNA inh OD600 – second read-out of Ecoli rRNA inh, no call of its own (marks repeat the call); OD600 change, %; measured here: OD600 growth;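 optical density of the mix in the first replicate; 0 = DMSO median and -100 = no signal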
# Ecoli rRNA inh RFP – recorded beside Ecoli rRNA inh, whose call it bears; RFP signal change, %; measured here: RFP humanized mutant strains;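 first replicate; 0 = DMSO median and -100 = no signal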
# * marks the source's active call; other numbers are inactive results; i = inactive; & = joins results of further samples; ! = not active in a repeat.
SMILES,AF4-AF9 inh,Ecoli rRNA inh,Ecoli rRNA inh OD600,Ecoli rRNA inh RFP,FGF22 binding
COc1ccc(NC(=O)Nc2ccc3c(c2)C(=O)N([C@H](C)CO)C[C@H](C)[C@@H](CN(C)CC2CC2)OCCCC[C@@H](C)O3)cc1,16,3,8,-0.4,i
C[C@H]1CN([C@@H](C)CO)C(=O)c2cc(NS(=O)(=O)c3ccccc3)ccc2O[C@@H]1CN(C)C(=O)NC1CCCCC1,-1.0,1,-2,-0.7,i
CCC(=O)N1[C@H](CO)[C@H](c2ccc(-c3ccc(C#N)cc3)cc2)C12CN(C(C)=O)C2,-0.5,-3,-5,0.8,i
Cc1ccccc1-c1cnc2c(c1)C(=O)N([C@@H](C)CO)C[C@H](C)[C@H](CN(C)C(=O)c1ccncc1)O2,-0.7,-1,11,-3.0,i
COc1ccccc1S(=O)(=O)N[C@@H]1CC[C@@H](CCNC(=O)C2CCCC2)O[C@H]1CO,-16,0,-2,1.8,i
C[C@H]1CN([C@@H](C)CO)S(=O)(=O)c2ccc(-c3ccc(C(=O)N(C)C)cc3)cc2O[C@@H]1CN(C)C(=O)C1CCOCC1,-0.9,0,-4,-0.5,i
CCC(=O)NC[C@H]1[C@@H](c2ccc(C3=CCCC3)cc2)[C@H](CO)N1C(C)=O,0.5,0,-5,-1.3,i
O=C(C1CC1)N1C[C@@H]2[C@H](c3ccccc31)[C@@H](CO)N2Cc1ccccc1Cl,-3.8,-6,-7,2.6,i
CCCNC(=O)N(C)C[C@@H]1Oc2cc(C#CC(C)(C)O)ccc2S(=O)(=O)N([C@H](C)CO)C[C@H]1C,-2.9&-0.6&-3.8,1&5,4&3,8.1&-3.1,i
COC1=CC(=O)C(C2CC(=O)c3c(O)cc(O)cc3O2)=CC1=O (centres undefined),-11,-1,8,4.3,i
COc1cc(NC(=O)SC2=NCCS2)cc(OC)c1,1.6,-5,0,-1.2,i
COc1ccccc1-c1cc(NC=O)c2ncc(-c3cccc(C(=O)N(C)C)c3)n2c1,2.5,-5,-4,7.6,i
C[C@H]1CN([C@@H](C)CO)C(=O)c2cc(C3=CCCCC3)cnc2O[C@@H]1CN(C)C(=O)CN1CCOCC1,-4.1,-1,-10,-4.7,i
CCCN(C)C[C@@H]1OCCCC[C@@H](C)Oc2ccc(N(C)C)cc2C(=O)N([C@@H](C)CO)C[C@@H]1C,5.8,-1,-1,-1.6,i
Cc1noc(C)c1NC(=O)N(C)C[C@@H]1Oc2ccc(NC(=O)Cc3ccccc3)cc2CC(=O)N([C@@H](C)CO)C[C@@H]1C,-2.3,1,-7,0.5,i
CC(C)NC(=O)N[C@@H]1C=C[C@@H](CC(=O)NC2Cc3ccccc3C2)O[C@H]1CO,-7.1,-3,4,-2.3,i
Cc1ccc(S(=O)(=O)Nc2ccc3c(c2)C(=O)N([C@H](C)CO)C[C@@H](C)[C@H](CN(C)C(=O)Nc2ccc4c(c2)OCO4)OCCCC[C@@H](C)O3)cc1,-1.4,-2,2,0.8,i
C[C@H]1CN([C@@H](C)CO)C(=O)c2cccc(NS(=O)(=O)c3ccc(F)cc3)c2O[C@@H]1CN(C)C(=O)NC1CCCCC1,-1.0,-2,-3,0.5,i
CN(C)C(=O)C[C@@H]1CC[C@H](NC(=O)C2CCOCC2)[C@H](CO)O1,-1.4,4,6,-1.2,i
C[C@@H]1CN([C@H](C)CO)C(=O)c2cc(C#C[C@@H](C)O)cnc2O[C@@H]1CN(C)C(=O)c1ccncc1,-1.3,1,2,-3.1,i
CCCN(C)C[C@H]1Oc2cc(-c3ccncc3)ccc2S(=O)(=O)N([C@@H](C)CO)C[C@H]1C,-1.4,4,5,-3.4,i
CC(C)CC#Cc1cnc2c(c1)C(=O)N([C@H](C)CO)C[C@H](C)[C@@H](CN(C)C(=O)CCN1CCCCC1)O2,1.0,1,14,-0.9,i
COc1ccc(NC(=O)C2(C)Cc3c(-c4ccc5c(c4)OCO5)ccnc3O2)cc1 (centres undefined),-3.5,-1,-15,0.2,i
CC1=C(C(=O)N2CCOCC2)CC(CC(=O)NCc2ccco2)C(=O)N1Cc1ccc(C(C)(C)C)cc1 (centres undefined),2.6,-1,1,-1.2,i
O=C1[C@H]2[C@@H](c3ccc(C(F)(F)F)cc3)N[C@]3(CCCN(Cc4ccc(F)cc4)C3=O)[C@H]2C(=O)N1Cc1ccccc1,0.1,-4,2,-1.5,i
C[C@H]1CN([C@@H](C)CO)C(=O)c2cc(-c3cncnc3)cnc2O[C@H]1CN(C)Cc1ccncc1,-4.1,11,16,-4.5,i
O=C(CC1CC1)N1[C@@H]2CN(S(=O)(=O)c3ccccc3)c3ccccc3[C@@H]2[C@@H]1CO,-2.2,-1,4,0.9,i
C[C@H]1CN([C@@H](C)CO)C(=O)CCCn2nncc2CO[C@H]1CN(C)C(=O)Nc1ccccc1F,-1.0,0,4,-1.5,i
C[C@H](CO)N1C[C@H](C)[C@@H](CN(C)Cc2ccccc2F)Oc2cc(C3=CCCC3)ccc2S1(=O)=O,-13,5,3,-0.7,i
O=C(C[C@@H]1C[C@@H]2c3cc(NC(=O)c4cccnc4)ccc3O[C@@H]2[C@@H](CO)O1)NCC1CC1,-0.6,-3,0,-2.1,i

# Compound profiles, as listed above.
# C[C@H](CO)N1C[C@H](C)[C@@H](CN(C)Cc2ccccc2F)Oc2cc(C3=CCCC3)ccc2S1(=O)=O is entered as AF4-AF9 inh: -13; Ecoli rRNA inh: 5; Ecoli rRNA inh OD600: 3; Ecoli rRNA inh RFP: -0.7; FGF22 binding: i
# COc1ccc(NC(=O)C2(C)Cc3c(-c4ccc5c(c4)OCO5)ccnc3O2)cc1 (centres undefined) is entered as AF4-AF9 inh: -3.5; Ecoli rRNA inh: -1; Ecoli rRNA inh OD600: -15; Ecoli rRNA inh RFP: 0.2; FGF22 binding: i
# Cc1ccc(S(=O)(=O)Nc2ccc3c(c2)C(=O)N([C@H](C)CO)C[C@@H](C)[C@H](CN(C)C(=O)Nc2ccc4c(c2)OCO4)OCCCC[C@@H](C)O3)cc1 is entered as AF4-AF9 inh: -1.4; Ecoli rRNA inh: -2; Ecoli rRNA inh OD600: 2; Ecoli rRNA inh RFP: 0.8; FGF22 binding: i

# (further entries)
SMILES,AF4-AF9 inh,Ecoli rRNA inh,Ecoli rRNA inh OD600,Ecoli rRNA inh RFP,FGF22 binding
COc1ccc(NC(=O)Nc2ccc3c(c2)C(=O)N([C@@H](C)CO)C[C@@H](C)[C@H](CN(C)S(=O)(=O)c2ccc(C)cc2)O3)cc1,-1.3,-6,6,-3.0,i
CC(C)C#Cc1cnc2c(c1)C(=O)N([C@H](C)CO)C[C@H](C)[C@@H](CN(C)C(=O)CN1CCOCC1)O2,-5.4,4,12,-3.6,i
C[C@@H]1CN([C@@H](C)CO)C(=O)c2cccc(NC(=O)c3nc4ccccc4s3)c2O[C@@H]1CN(C)C(=O)Nc1ccccc1,6.8,-6,-8,4.2,i
CN(C)CC(=O)Nc1ccc2c(c1)[C@H]1C[C@@H](CC(=O)N3CCc4ccccc4C3)O[C@@H](CO)[C@H]1O2,1.2,1,1,-1.4,i
CCCCOCCO,8.6,8,9,0.1,i
C[C@H](CO)N1C[C@H](C)[C@H](CN(C)Cc2ccc(C(=O)Nc3ccccc3N)cc2)Oc2c(NC(=O)Nc3ccc(F)cc3)cccc2C1=O,-0.7,3,0,0.0,i
C[C@@H]1CN([C@@H](C)CO)C(=O)c2cc(NC(=O)Nc3ccc4c(c3)OCO4)ccc2O[C@H]1CN(C)S(=O)(=O)c1cccs1,8.1,-5,-7,-1.2,i
O=C(N[C@@H]1C=C[C@@H](CC(=O)N2CCN(c3ccccc3)CC2)O[C@H]1CO)c1ccccc1,-2.0,-2,-3,-2.0,i
CC1=C(C(=O)N2CCOCC2)CC(CC(=O)NCc2cccs2)C(=O)N1Cc1ccc(F)cc1 (centres undefined),-2.0,15,15,1.9,i
COc1ccccc1-c1cnc2c(c1)C(=O)N([C@@H](C)CO)C[C@H](C)[C@H](CN(C)Cc1ccc(F)cc1)O2,-3.8,-5,-9,-3.0,i
C[C@H]1CN([C@@H](C)CO)C(=O)c2cc(NC(=O)Nc3ccc(C(F)(F)F)cc3)ccc2O[C@H]1CN(C)S(=O)(=O)c1ccc(Cl)cc1,-0.1,3,3,1.1,i
Cc1cc(C(=O)Nc2cccc3c2O[C@H](CN(C)S(=O)(=O)c2ccccc2)[C@H](C)CN([C@H](C)CO)C3=O)n(C)n1,-9.3,-3,-6,-0.8,i
CCCN(CC1CC1)C(=S)NC(=O)c1ccccc1C,-11,-3,3,9.2,i
COc1ccc2c3c([nH]c2c1)[C@H](CO)N(C)CC31CCN(C(=O)C2CC2)CC1,0.5,1,-2,3.2,i
N#C[C@H]1[C@@H](c2ccc(-c3ccncc3)cc2)[C@@H](CO)N1C(=O)C1CCCCC1,0.4,-9,-3,0.1,i

# Among those listed so far, two have a CF3 group:
SMILES,AF4-AF9 inh,Ecoli rRNA inh,Ecoli rRNA inh OD600,Ecoli rRNA inh RFP,FGF22 binding
O=C1[C@H]2[C@@H](c3ccc(C(F)(F)F)cc3)N[C@]3(CCCN(Cc4ccc(F)cc4)C3=O)[C@H]2C(=O)N1Cc1ccccc1,0.1,-4,2,-1.5,i
C[C@H]1CN([C@@H](C)CO)C(=O)c2cc(NC(=O)Nc3ccc(C(F)(F)F)cc3)ccc2O[C@H]1CN(C)S(=O)(=O)c1ccc(Cl)cc1,-0.1,3,3,1.1,i

# (more compounds)
SMILES,AF4-AF9 inh,Ecoli rRNA inh,Ecoli rRNA inh OD600,Ecoli rRNA inh RFP,FGF22 binding
Cc1noc(C)c1NC(=O)N(C)C[C@@H]1OCCCC[C@H](C)Oc2ccc(NC(=O)Nc3ccc4c(c3)OCO4)cc2C(=O)N([C@@H](C)CO)C[C@H]1C,6.3,1,-3,-1.4,i
C[C@@H]1CN([C@H](C)CO)C(=O)Cc2cc(NC(=O)Nc3ccc(C(F)(F)F)cc3)ccc2O[C@H]1CN(C)C(=O)Nc1ccc(F)cc1,-1.6,-2,-3,0.7,i
COCC(=O)N1CC2(C1)CN(Cc1ccccn1)[C@@H](CO)c1[nH]c3cc(OC)ccc3c12,-1.8,3,4,-2.1,i
C[C@H](NC(=O)C[C@@H]1C=C[C@H](NC(=O)c2cccnc2)[C@@H](CO)O1)c1ccccc1,-16,0,10,-2.8,i
C[C@@H]1CCCCO[C@H](CN(C)C(=O)Nc2ccc(C(F)(F)F)cc2)[C@@H](C)CN([C@H](C)CO)C(=O)c2cc(NC(=O)Nc3cccc4ccccc34)ccc2O1,-3.8,1,-6,-1.6,i
CCCNC(=O)Nc1ccc2c(c1)C(=O)N(C)C[C@@H](OC)[C@H](C)CN(C)[C@@H](C)CO2,1.1,2,-1,-0.4,i
C[C@@H]1CN([C@H](C)CO)C(=O)Cc2cc(NC(=O)Cn3cnnn3)ccc2O[C@@H]1CN(C)C(=O)NC1CCCCC1,-1.4,3,3,1.2,i
C[C@@H]1CN([C@@H](C)CO)S(=O)(=O)c2ccc(Br)cc2O[C@@H]1CN(C)Cc1ccc2c(c1)OCO2,10&3.0,-34*!,-22*!,-1.2*!,i
CNC(=O)c1ccc(CN(C)C(=O)/C=C/c2ccc(S(=O)(=O)N3CCCCCC3)cc2)cc1,-4.9,-9,-11,2.1,i
CC(C)NC(=O)Nc1ccc2c(c1)C(=O)N([C@@H](C)CO)C[C@H](C)[C@H](CN(C)C(=O)C1CCCCC1)OCCCC[C@@H](C)O2,-3.4,3,6,0.9,i
COc1cccc(-c2cnc3c(c2)C(=O)N([C@H](C)CO)C[C@H](C)[C@H](CN(C)CC2CCOCC2)O3)c1,-3.5,3,24,-0.8,i
CCOP(=O)(OCC)C(Cc1ccccc1)N=C(c1ccccc1)c1ccccc1 (centres undefined),2.6,-7,-9,6.8,i
O=C(C[C@H]1C=C[C@@H](NC(=O)NC2CCCCC2)[C@@H](CO)O1)NCc1ccc(Cl)cc1,-1.3,-5,1,-3.6,i
CCCCCCCCC(c1nc2ccccc2[nH]1)N1CCN=C(c2ccccc2)C1=O (centres undefined),-0.6,20,9,12,i
O=C(NCc1ccc2c(c1)OCO2)[C@H]1[C@H](CO)[C@H]2Cn3c(cccc3=O)[C@@H]1N2Cc1cccnc1,2.7,-1,2,-5.0,i
C[C@@H]1CN([C@H](C)CO)C(=O)c2cc(N(C)C)ccc2O[C@@H]1CN(C)C(=O)Nc1cccc2ccccc12,3.1,-1,4,1.5,i
C[C@H]1CN([C@@H](C)CO)C(=O)c2cccc(NC(=O)Nc3ccccc3)c2O[C@H]1CN(C)C(=O)Nc1ccc(F)cc1,0.0,-3,2,-1.7,i
COc1ccccc1-c1n[nH]nc1C1=CC(=O)CC(C)(C)C1,2.5,-4,-12,-0.5,i
C[C@H]1CN([C@@H](C)CO)C(=O)c2cc(NC(=O)CCCN(C)C)ccc2O[C@H]1CN(C)Cc1ccc(C(F)(F)F)cc1,-1.9,2,8,-0.3,i
CCCNC(=O)C1(C)CCCN(C(=O)c2cc(C)n(C(C)(C)C)n2)C1 (centres undefined),0.3,6,5,3.2,i
C[C@H]1CN([C@@H](C)CO)C(=O)c2cc(NC(=O)Cn3cnnn3)ccc2O[C@@H]1CN(C)C(=O)Nc1ccc(C(F)(F)F)cc1,-9.2,-3,0,-2.3,i
O=C(CC1CC1)Nc1ccc2c(c1)[C@H]1C[C@@H](CC(=O)N3CCCCC3)O[C@@H](CO)[C@H]1O2,1.8,0,-13,-1.9,i

# Only part of the results is shown. The share of hits here may be higher or lower than overall.
